Screening data as filed in PubChem BioAssay.
HNF4A DNA FP: change in binding of human HNF4A to DNA, primary screen, biochemical, fluorescence polarization, FITC-DNA; Hepatocyte nuclear factor 4-alpha (Homo sapiens), P41235; 1 h; activity change, % at 10 µM; actives 0.3% (n = 360,000); in the data active = activity change above about 30%, passing the limit was not always enough;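 also: controls were the assay level and a saturating level of protein; the project sought stronger binding though the title names inhibitors; some compounds called inactive have numbers as strong as hits; positive values seem to mean higher polarization but the record does not say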
FGF22 binding: binders of human FGF22 protein, primary screen, FGF22 synaptogenesis inhibitor project, biophysical, thermal shift, single point; Fibroblast growth factor 22 (Homo sapiens), Q9HCT0; recombinant FGF22 thermal shift, SYPRO orange fluorescence; percent of sucrose octasulfate shift, DMSO zero; calls only at 9.99 µM; actives 1.5% (n = 340,000); AID 651658, 2012;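 active = melting point raised past a set limit in the mean and every replicate; inconclusive = no clear call; three in four hits are not shown here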
Target sequence (Q9HCT0 whole entry, looked up): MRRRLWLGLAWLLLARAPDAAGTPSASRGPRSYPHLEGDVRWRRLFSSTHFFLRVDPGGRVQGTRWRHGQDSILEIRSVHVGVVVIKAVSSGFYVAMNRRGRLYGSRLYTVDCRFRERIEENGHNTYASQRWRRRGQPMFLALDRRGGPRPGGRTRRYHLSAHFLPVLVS
UCH37 DUB inh: inhibitors of human UCH37 deubiquitinase, primary screen, biochemical, Ub-AMC cleavage, fluorescence. Ubiquitin carboxyl-terminal hydrolase isozyme L5 (Homo sapiens), Q9Y5K5. purified proteasome/UCH37. inhibition, % (test concentration not listed). actives 0.33% (n = 330,000). AID 588478, 2011;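 active = mean of two replicates above 20%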;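 also: 0% = compound-free wells with enzyme and 100% = wells lacking proteasome; stock transfer was 100 nL into about 20 µL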
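Reagent: Ub-AMC substrate; assay system: Proteasome-associated human UCH37 deubiquitinase; controls: no-proteasome and no-compound wells; read-out: % inhibition of Ub-AMC cleavage fluorescence; timing: 30 min preincubation with enzyme, 25 min cleavage at room temperature; signal: AMC fluorescence from Ub-AMC cleavage, excitation 355 nm, emission 460 nm; buffer or medium: Tris-HCl pH 7.4 plus ovalbumin, ATP-MgCl2, DTT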
RanGTP-Imp inh: inhibitors of RanGTP-importin-beta interaction, primary screen, biochemical, FRET, CFP-Ran, YFP-importin-beta, homogeneous; Ran GTPase (GTP-bound) - importin-beta complex; cell-free CFP-Ran/YFP-importin-beta FRET ratio; inhibition, % (no concentration beside the values); actives 1.1% (n = 300,000);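 active = most replicates above 15%; inconclusive = exactly half above 15%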;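 also: 0% = DMSO wells and 100% = Ran loaded with GDP instead of GTP; wells of about 40 µL received 100 nL stock; the first replicate is given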
Ecoli growth: E. coli growth inhibition, primary screen, OD600 | Escherichia coli growth, 23 h; active compounds read low | OD600 absorbance (concentration not given with the values) | actives 0.21% (n = 330,000) | AID 1053175, 2014;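 active = OD600 absorbance below the run mean of sample wells minus 3.6 SD, in any replicate, cut at about 0.56 in these data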;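 also: stock transfer was 300 nL into about 60 µL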
AF4-AF9 inh: inhibitors of AF4 peptide binding to AF9, primary screen, biochemical, AlphaScreen, biotin-AF4 peptide, FLAG-AF9, single point; inhibition, % at 10 µM; actives 0.47% (n = 350,000); AID 651704, 2012;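 active = every replicate reaching a set inhibition limit, whatever the replicate mean, cut at about 25% in these data; inconclusive = mean inhibition reaches that limit but some replicates miss it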;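 also: 0% = plate neutral control median and 100% = total signal loss; the record names both 10 and 1 µM as test concentration; the first replicate is given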
Target sequence (P42568 whole entry, looked up): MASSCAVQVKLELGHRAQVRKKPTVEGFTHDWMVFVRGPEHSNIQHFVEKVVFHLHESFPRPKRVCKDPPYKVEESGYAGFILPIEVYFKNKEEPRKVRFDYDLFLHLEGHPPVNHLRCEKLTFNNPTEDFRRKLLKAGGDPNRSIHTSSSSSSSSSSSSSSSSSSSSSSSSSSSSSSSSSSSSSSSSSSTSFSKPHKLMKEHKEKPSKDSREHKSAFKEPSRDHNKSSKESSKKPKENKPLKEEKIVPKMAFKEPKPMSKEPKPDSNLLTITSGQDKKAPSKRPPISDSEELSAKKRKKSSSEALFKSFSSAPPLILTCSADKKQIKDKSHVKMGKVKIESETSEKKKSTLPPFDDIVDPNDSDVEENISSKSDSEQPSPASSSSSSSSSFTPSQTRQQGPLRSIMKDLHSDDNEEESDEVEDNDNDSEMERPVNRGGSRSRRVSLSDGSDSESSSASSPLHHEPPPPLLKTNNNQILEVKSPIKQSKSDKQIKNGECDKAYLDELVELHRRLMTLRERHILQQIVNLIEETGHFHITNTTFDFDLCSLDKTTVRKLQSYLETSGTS
Vif TR-FRET: inhibitors of Vif binding to APOBEC3G peptide, primary screen, biochemical, TR-FRET, GST-Vif 1-94, biotin-A3G peptide, dose response retest (AID 1117319); Virion infectivity factor (Human immunodeficiency virus type 1 group M subtype B (isolate …; TR-FRET GST-Vif / biotin-A3G peptide binding; higher % means a stronger effect; test concentration not given here; strong numbers were not always called active; inhibition, %; hits with a dose series show IC50 in µM; actives 0.57% (n = 260,000);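 active = above the screen mean plus three standard deviations and confirmed in dose response; inconclusive = results disagree or hit not tested in dose response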;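 also: Vif residues 1-94 fused to GST binding biotinylated APOBEC3G peptide 110-148; 0% = full assay without inhibitor and 100% = GST in place of GST-Vif; retest series ran down from 100 µM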
The depositor's hits bear a star; i = inactive; ? = inconclusive; nt = no result given; & = joins results of further samples. The list is partial, so the mix of outcomes need not match the whole.

molecule	HNF4A DNA FP	Ecoli growth	FGF22 binding	RanGTP-Imp inh	AF4-AF9 inh	Vif TR-FRET	UCH37 DUB inh
COc1ccc(N2C(=NC(=O)C(C)Oc3ccccc3)SC3CS(=O)(=O)CC32)cc1 (stereo not drawn)	-2.3	0.68	i	1.2	3.5	nt	0.3
Cc1cccc(N2CCN(C(=O)C3CCN(S(=O)(=O)N4CCOCC4)CC3)CC2C)c1 (stereo not drawn)	-0.2	0.7	i	2.9	0.0	nt	-3.2
Cc1cc2oc(=O)cc(CNc3ccccc3F)c2cc1O	1.4	nt	i	?	-4.9	nt	nt
CCOC(=O)c1oc2c(CN3CCN(C)CC3)c(O)ccc2c(=O)c1-c1ccc(Br)cc1	1.6	0.67	i	?	0.7	nt	5.9
O=C(NCc1ccco1)C(c1cccs1)N(C(=O)Cc1cccs1)c1ccccc1 (stereo not drawn)	-2.0	0.66	nt	-1.1	nt	1%	-1.0
CN(C)C(=S)Nc1cccc(F)c1	11	0.66	i	0.9	0.8	-5%	2.5
Cc1ccc(NC(=O)CCn2c(=S)oc3ccccc32)cc1	-2.8	0.74	i	nt	-1.5	-2%	1.8
Cc1ccc(NC(=O)C2CCCN(C(=O)Nc3ccc(F)cc3)C2)cc1 (stereo not drawn)	2.1	0.69	i	?	-0.6	nt	1.2
O=C(COC(=O)c1ccc(Oc2ccccc2)cc1)Nc1nnc(-c2ccccc2)o1	-3.7	0.71	nt	5.4	nt	17%	0.6
Cc1ccc(N2C(=O)c3ccc(C(=O)O)cc3C2=O)c(C)c1	-0.1	0.66	nt	4.7	nt	-4%	0.8
Cc1ccc(S(C)(=O)=NS(=O)(=O)c2cccc3nsnc23)cc1 (stereo not drawn)	-2.2	0.67	i	-2.8	0.1	-3%	2.8
CC(C)OCCCN1CC(=O)N2C(c3cccc([N+](=O)[O-])c3)c3[nH]c4ccccc4c3C[C@H]2C1=O (stereo partly drawn)	-0.2	0.66	i	-3.5	8.8	0%	1.3
COc1ccc(C)cc1NC(=O)C(C)N1CCOCC1 (stereo not drawn)	3.2	0.71	i	5.7	-4.8	nt	1.5
CC1=C/C(=N\NC(=O)c2ccc(O)cc2)CC1	1.1	nt	i	-5.6	0.9	-10%	nt
N#Cc1c(NC(=O)C2CC(c3ccccc3Cl)=NO2)sc2c1CCC2 (stereo not drawn)	-3.5	0.69	nt	2.8	nt	-1%	-0.6
CCCC1=C(C(=O)OCC)C(c2ccccc2OCC)NC(=O)N1C (stereo not drawn)	5.0	0.65	nt	?	nt	2%	3.5
COCc1cc(=O)[nH]c(-c2ccc(C(F)(F)F)cc2)n1	3.5	0.64	i	-4.3	0.0	9%	1.8
COc1ccc(C)cc1NC(=O)NCc1ccc(F)cc1	2.3	0.72	i	3.0	-16	8%	-0.4
CCOC(=O)c1cc(=O)cc(C(=O)OCC)o1	2.4	0.73	nt	5.8	nt	1%	3.0
CNC(=O)c1cc(-c2ccc(Cl)cc2)n(-c2ccccc2)n1	0.5	0.64	i	1.3	-0.5	nt	0.5
Fc1ccc(C2=Nn3c(nnc3-c3n[nH]c4c3CCC4)SC2)cc1	-0.5	0.75	nt	2.2	nt	-4%	0.7
Cc1ccccc1OCCC(=O)OCC(=O)c1c(N)n(CC(C)C)c(=O)n(C)c1=O	0.1	0.72	i	2.3	1.1	2%	1.7
COC(=O)c1[nH]c2ccc(Br)cc2c1NC(=O)Oc1ccccc1	-0.3	0.71	nt	-7.8	nt	-7%	0.5
COc1ccc(Cn2c(=N)c(C(=O)NCC3CCCO3)cc3c(=O)n4ccccc4nc32)cc1 (stereo not drawn)	4.3	0.65	i	23*	-2.8	nt	-3.5
Cc1ccc(CN2CCN(Cc3ccc(Oc4ncccn4)cc3)CC2CCO)cc1 (stereo not drawn)	-4.2	0.65	i	-3.7	5.0	-7%	7.2

Complete entries from above. Order of screens: HNF4A DNA FP | Ecoli growth | FGF22 binding | RanGTP-Imp inh | AF4-AF9 inh | Vif TR-FRET | UCH37 DUB inh
Cc1ccc(CN2CCN(Cc3ccc(Oc4ncccn4)cc3)CC2CCO)cc1 (stereo not drawn) reads -4.2 | 0.65 | i | -3.7 | 5.0 | -7% | 7.2
N#Cc1c(NC(=O)C2CC(c3ccccc3Cl)=NO2)sc2c1CCC2 (stereo not drawn) reads -3.5 | 0.69 | nt | 2.8 | nt | -1% | -0.6

Continued:
molecule	HNF4A DNA FP	Ecoli growth	FGF22 binding	RanGTP-Imp inh	AF4-AF9 inh	Vif TR-FRET	UCH37 DUB inh
CN(C)N=Nc1nc[nH]c1C(N)=O	-1.7	0.59	i	nt	-4.5	nt	5.7
COC(=O)N1CCN(c2ccc(Cl)c(Cl)c2)CC1	-0.5	0.71	i	2.8	5.8	4%	5.8
O=C1C(=Cc2ccc(F)cc2)Cc2ccccc21	7.5	nt	i	nt	-0.9	nt	nt
Cc1ccccc1C(=O)Nc1nnc(CC(=O)N/N=C/c2ccncc2)s1	2.9	nt	i	-0.7	0.9	6%	nt
COc1ccc(CCN2C(=S)NC3CC2(C)Oc2ccc([N+](=O)[O-])cc23)cc1OC (stereo not drawn)	1.2	0.68	nt	4.2	nt	13%	3.3
O=c1c2cc(N3CCOCC3)ccc2[nH]c(=S)n1CCc1ccccc1	-3.7	0.74	i	7.6	0.3	-15%	-64
COc1cccc(N2CCN(C(=S)NCCc3ccccc3)CC2)c1	-5.9	0.75	nt	-3.9	nt	-4%	3.5
O=C(c1cccs1)N1C[C@H](n2cc(C3CC3)nn2)[C@@H](O)C[C@@H]1c1ccccc1	0.1	nt	i	nt	-0.7	3%	nt
COc1cc(C(=O)NCC(=O)OCC(=O)Nc2ncc(Cl)cc2Cl)cc(OC)c1OC	1.4	0.69	i	-0.3	0.7	9%	-2.0
COc1cccc(NC(=O)C2C3C=CC4(O3)C2C(=O)N(CCCN2CCCCC2)C4C(=O)NC2CCCCC2)c1 (stereo not drawn)	-1.5	0.66	i	?	3.9	nt	5.5
CCN1CCN(CCCNC(=O)c2ccc3c(c2)N(Cc2ccccc2)CCS3)CC1	4.0	0.7	i	-1.8	17	0%	i
CC(=O)NCCc1nc2ccccc2n1Cc1ccc(C)cc1	2.7	0.69	i	0.0	-1.1	?	3.4
CCOC(=O)c1cc(C#N)c(Oc2cccc(C(F)(F)F)c2)nc1-c1ccccc1	-1.5	0.77	nt	3.0	nt	1%	2.3
CCOc1cc(N2CCOCC2)c(OCC)cc1NC(=O)CN1C(=O)NC(C)(c2ccc(OC)cc2)C1=O (stereo not drawn)	-0.2	0.66	i	nt	-2.2	nt	4.5
COc1ccc(CCN(C)CC(O)COc2c(C)ccc(C)c2C)cc1OC (stereo not drawn)	-1.1	0.6	i	?	4.5	-6%	3.0
COc1ccc2cc(C(=O)C3CCCN(Cc4cccc(C)n4)C3)ccc2c1 (stereo not drawn)	-1.6	0.62	i	-5.6	6.6	-7%	-413
COc1cccc(CN(C)CC(=O)Nc2cc(S(=O)(=O)N3CCCC3)ccc2Cl)c1OC	1.2	0.62	i	nt	1.3	-1%	1.6
Cc1nc2ccccc2c(=O)n1NC(=O)CCC(=O)O	3.1	0.71	i	0.9	-0.2	9%	-6.9
On1c(-c2ccccc2)nc2ccc(Cl)cc21	-1.6	0.63	nt	-7.0	nt	5%	-2.0
CCN(CC)c1ccc(/C=c2/sc3nnc(-c4ccccc4C)n3c2=O)cc1	24	nt	nt	-7.1	nt	-4%	nt
Cc1cc(OC(=O)c2ccco2)c(Sc2ccccc2[N+](=O)[O-])c(=O)o1	6.1	0.71	nt	nt	nt	0%	2.8
Cn1c(=O)cc(SCC(=O)N2CCCC2)c2cc(Cl)ccc21	2.1	0.76	nt	1.1	nt	0%	-4.5
FC(F)(F)c1cccc(Oc2ccc3c(C(F)(F)F)cc(C(F)(F)F)nc3n2)c1	-9.4	0.7	nt	?	nt	73%	5.0
O=c1[nH]c(SCc2nc3c(cnn3-c3ccccc3)c(=O)[nH]2)nc2ccccc12	11	0.75	nt	nt	nt	-1%	5.8
O=C(CNC(=O)c1ccc(F)cc1)NCc1ccc(Cl)cc1	1.6	0.68	i	-3.3	-1.6	nt	4.7
Cc1nnc2n1NC(c1ccc(Cl)cc1)C(C(=O)N(C)C1CCCCC1)S2 (stereo not drawn)	3.3	0.7	nt	?	nt	0%	1.1
C=CCOc1ccc(/C=C/C(=O)OCC(=O)N2CCCc3ccccc32)cc1	5.4	0.65	i	5.1	7.6	4%	-1.2
CC(C)CC(=O)NC(=S)Nc1nc(-c2ccccc2)cs1	-0.5	0.72	nt	4.1	nt	nt	4.3
COc1cccc(C(=O)N2CCN=C2SCc2cccnc2)c1OC	3.8	0.75	i	-1.7	-4.6	-1%	2.1
O=C(/C=C/[C@H]1O[C@@H](n2ccc(=O)[nH]c2=O)[C@H](O)[C@@H]1O)NCc1ccco1	0.8	nt	i	nt	4.0	nt	nt
CCOC(=O)CN1C(=O)N[C@@H](CCc2ccccc2)[C@H](C(=O)OC)[C@H]1C	-1.3	nt	i	-2.7	-5.5	nt	1.7
O=C(NCc1ccco1)C1(c2ccccc2)CCCC1	4.4	0.61	i	-0.6	-40	-2%	0.3
COc1ccc(Cn2c(=O)sc3ccccc32)cc1OC	1.1	0.71	nt	-0.5	nt	-3%	1.4
COc1ccccc1NC(=O)CCCNC(=O)Cn1cnc2sc(C)c(C)c2c1=O	2.2	0.66	i	0.0	0.5	nt	1.0
CCn1c(COc2ccc(C)cc2)nnc1SCC(=O)C(C)(C)C	1.4	0.73	nt	4.6	nt	-7%	1.0
Cc1[nH]c2ccccc2c1/C=N/Nc1nc(Nc2ccc(F)cc2)nc(N2CCOCC2)n1	-1.0	nt	nt	1.0	nt	-3%&8%	nt
COc1cc(C(=O)N2C[C@@H]3CCC[C@H]2C3)ccc1OC1CCN(C(C)=O)CC1	-5.1	0.69	i	3.1	0.6	nt	1.5
